High-throughput results as filed in PubChem.
HNF4A DNA FP: change in binding of human HNF4 alpha to DNA; P41235; HNF4a-FITC DNA binding, fluorescence polarization, 1 h; activity change, % at 10 µM; 0.3% of 360,000 active; in the data active = activity change above about 30%, passing the limit was not always enough;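 also: controls were the assay level and a saturating level of protein; the project sought stronger binding though the title names inhibitors; some compounds called inactive have numbers as strong as hits; positive values seem to mean higher polarization but the record does not say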
Target sequence (P41235 whole entry, looked up): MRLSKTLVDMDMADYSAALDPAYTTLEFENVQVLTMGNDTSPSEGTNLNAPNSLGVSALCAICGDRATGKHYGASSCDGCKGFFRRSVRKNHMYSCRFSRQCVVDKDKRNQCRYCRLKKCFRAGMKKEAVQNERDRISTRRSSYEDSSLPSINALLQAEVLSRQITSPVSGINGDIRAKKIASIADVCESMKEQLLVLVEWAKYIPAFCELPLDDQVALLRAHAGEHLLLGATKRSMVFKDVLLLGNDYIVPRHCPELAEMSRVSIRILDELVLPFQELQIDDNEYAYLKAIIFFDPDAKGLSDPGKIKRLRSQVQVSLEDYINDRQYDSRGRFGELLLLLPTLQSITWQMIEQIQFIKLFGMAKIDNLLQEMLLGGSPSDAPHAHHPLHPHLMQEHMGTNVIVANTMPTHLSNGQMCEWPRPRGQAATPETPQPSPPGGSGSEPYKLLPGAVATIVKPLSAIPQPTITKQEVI
Vif A3G: HIV-1 Vif–A3G interaction blockers – biochemical, TR-FRET, GST-Vif 1-94, biotin-A3G peptide, dose response retest, primary screen (AID 1117319); 0.57% of 260,000 active; TR-FRET GST-Vif / biotin-A3G peptide binding; higher % means a stronger effect; test concentration not given here; strong numbers were not always called active; one-dose inhibition, %; IC50 in µM for titrated hits;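 active = above the screen mean plus three standard deviations and confirmed in dose response; inconclusive = results disagree or hit not tested in dose response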;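 also: Vif residues 1-94 fused to GST binding biotinylated APOBEC3G peptide 110-148; 0% = full assay without inhibitor and 100% = GST in place of GST-Vif; retest series ran down from 100 µM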
AF4-AF9 inh: blocks AF4 peptide binding to human AF9; AID 651704; 0.47% of 350,000 active; P42568; inhibition, % at 10 µM; AlphaScreen, biotin-AF4 peptide binding to FLAG-AF9;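 active = every replicate reaching a set inhibition limit, whatever the replicate mean, cut at about 25% in these data; inconclusive = mean inhibition reaches that limit but some replicates miss it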;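 also: 0% = plate neutral control median and 100% = total signal loss; the record names both 10 and 1 µM as test concentration; the first replicate is given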
Target sequence (P42568 whole entry, looked up): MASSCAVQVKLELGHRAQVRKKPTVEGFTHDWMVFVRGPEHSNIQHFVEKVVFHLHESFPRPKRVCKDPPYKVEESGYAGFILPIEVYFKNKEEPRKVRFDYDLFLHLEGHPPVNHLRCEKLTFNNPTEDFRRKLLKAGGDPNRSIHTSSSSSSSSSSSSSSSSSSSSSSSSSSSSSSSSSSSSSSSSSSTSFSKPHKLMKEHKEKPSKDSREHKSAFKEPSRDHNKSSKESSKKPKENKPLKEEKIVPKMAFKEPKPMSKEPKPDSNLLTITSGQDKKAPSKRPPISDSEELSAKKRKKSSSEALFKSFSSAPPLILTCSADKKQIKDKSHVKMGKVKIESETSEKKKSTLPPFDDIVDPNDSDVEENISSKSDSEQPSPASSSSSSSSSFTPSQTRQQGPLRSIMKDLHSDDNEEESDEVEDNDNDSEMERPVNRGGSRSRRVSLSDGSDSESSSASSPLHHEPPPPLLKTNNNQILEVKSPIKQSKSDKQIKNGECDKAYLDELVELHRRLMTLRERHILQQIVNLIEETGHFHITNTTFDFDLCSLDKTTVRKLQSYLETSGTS
rRNA inh HTS: inhibitors of bacterial rRNA selective over humanized ribosomes. E. coli WT GFP vs humanized-ribosome RFP mutants, fluorescence, 24 h; stronger effect = lower value; DMSO median 0, no signal -100. GFP signal change (wild-type ribosome), % (concentration not given with the values). 1.6% of 350,000 active. AID 720706;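 active = significant combined selectivity score with lowered wild-type GFP, culture density cut under 30%, mutant RFP and density less affected; inactive = any of these conditions unmet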; also: one replicate is shown; some compounds called inactive have numbers as strong as hits
Ecoli growth: E. coli growth inhibition; Escherichia coli growth, OD600, 23 h; stronger effect = lower value; OD600 absorbance (concentration not given with the values); 0.21% of 330,000 active; AID 1053175;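 active = OD600 absorbance below the run mean of sample wells minus 3.6 SD, in any replicate, cut at about 0.56 in these data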;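 also: stock transfer was 300 nL into about 60 µL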
ALR H2O2 inh: human ALR oxidase inhibition via reduced H2O2 | P55789 | purified ALR, DTT oxidation, H2O2 HRP-luminol luminescence | inhibition, % (concentration not given with the values) | 3.8% of 290,000 active | AID 485317;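 active = mean and each replicate at 75% or more; inconclusive = only one of the two met; inactive = neither met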;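 also: stock transfer was 7.5 nL into about 7.5 µL; 0% = neutral wells and 100% = wells with inactivated enzyme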
FGF22 binding: binders of recombinant human FGF22 by thermal shift; 1.5% of 340,000 active; calls only at 9.99 µM; Q9HCT0; AID 651658; SYPRO orange fluorescence; percent of sucrose octasulfate shift, DMSO zero;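 active = melting point raised past a set limit in the mean and every replicate; inconclusive = no clear call; three in four hits are not shown here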
rRNA inh HTS OD600: second read-out of rRNA inh HTS, no call of its own (marks repeat the call); OD600 change, %; measured here: OD600 growth;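 optical density of the mix in the first replicate; 0 = DMSO median and -100 = no signal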
rRNA inh HTS RFP: further read-out of rRNA inh HTS, marked with its call; RFP signal change, %; measured here: RFP humanized mutant strains;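 first replicate; 0 = DMSO median and -100 = no signal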
Numbers without * were called inactive; i = inactive; ? = inconclusive; / = no result given; & = joins results of further samples. The list is partial; the hit share may differ from the screen's.

cpd	SMILES	HNF4A DNA FP	Vif A3G	AF4-AF9 inh	rRNA inh HTS	rRNA inh HTS OD600	rRNA inh HTS RFP	Ecoli growth	ALR H2O2 inh	FGF22 binding
1	CCOC(=O)c1cc(-c2ccc(Cl)cc2)nc2c1c(C)nn2CCC#N	-4.1	1.0%	/	/	/	/	0.722	-6.2	/
2	COc1ccc(NC(=O)Nc2ccc3c(c2)C(=O)N([C@@H](C)CO)C[C@@H](C)[C@@H](CN(C)Cc2ccc(C(F)(F)F)cc2)OCCCC[C@@H](C)O3)cc1	/	/	6.5	0.7	15.9	0.8	/	/	i
3	Cn1nnnc1Sc1ncnc2scc(-c3ccc4c(c3)OCO4)c12	3.7	/	5.2	20.2	11.8	10.1	0.701	8.5	i
4	C=CCO/N=C/C1=C(O)C(C(=O)OC)C(C)(C)CC1=O (centres undefined)	2.1	2.2%	0.5	6.6	3.7	0.3	/	13.2	i
5	CCCN(C(=O)CSc1ccccc1C(=O)O)C1CCS(=O)(=O)C1 (centres undefined)	-2.4	/	-1.0	8.5	5.9	-1.5	0.695	-2.0	i
6	O=C(O)c1c[nH]c2ccc(S(=O)(=O)N3CCN(c4ccc(F)cc4)CC3)cc2c1=O	1.6	6.6%&9.6%	-4.1	9.2	14.5	0.0	0.675	-1.6	i
7	CCCNc1c(NS(=O)(=O)c2ccc(OC)c(OC)c2)c(=O)oc2ccccc12	-12.3	-1.9%	/	/	/	/	0.678	?	/
8	Cc1ccc(C(=O)Nc2cccc3[nH]c(C(F)(F)F)nc23)cc1	3.4	-6.1%	-0.1	-23.5*	-14.2*	2.4*	0.593	-3.3	i
9	C[C@H]1CN([C@@H](C)CO)S(=O)(=O)c2ccc(C3=CCCC3)cc2O[C@H]1CN(C)C(=O)c1ccccn1	/	/	-1.7	-4.2	-11.7	-2.0	/	/	i
10	CC(CN1CCOCC1)OC(=O)c1ccccc1Cl (centres undefined)	0.9	/	2.0	-5.7	2.5	-2.9	0.603	/	i
11	O=C(Cc1ccc(S(=O)(=O)N2CCOCC2)s1)NCCOc1ccccc1F	1.6	2.1%	-14.1	4.1	8.7	1.2	0.689	-6.7	i
12	CC1(C)CC(=O)C=C(NCCCN2CCCC2=O)C1	0.5	-3.1%	/	/	/	/	0.693	-6.8	/
13	O=C(Nc1ccc(N2CCOCC2)c(Cl)c1)c1ccccc1Cl	-1.6	/	0.4	-18.0	-28.8	-8.7	0.676	-11.7	i
14	Cc1cccc(Nc2nc(N)c([N+](=O)[O-])c(N3CCOCC3)n2)c1	3.3	-2.4%	13.1	-24.1*	-18.1*	1.6*	0.664	47.6	i
15	CCOc1cc(N2CCOCC2)c(OCC)cc1NC(=O)COC(=O)CCOc1ccc(C)cc1	2.3	/	-1.1	17.8	9.3	1.3	/	/	/
16	COc1ccc(OCC(O)CN2C(=O)c3ccccc3S2(=O)=O)cc1 (centres undefined)	0.5	5.3%	/	/	/	/	0.696	0.1	/
17	CN1CCN(c2ncnc3c2ncn3[C@H]2CN(Cc3ccccc3)C[C@@H](CO)O2)CC1	2.7	/	-5.2	8.5	17.3	-0.6	/	/	i
18	O=C(N/C=C/c1ccco1)OCc1ccccc1	13.8	/	-2.4	4.9	7.7	5.8	/	15.7	i
19	C[C@@H]1O[C@@H](OC[C@@H]2O[C@H](Oc3c(-c4ccc(O)cc4)oc4cc(O)cc(O)c4c3=O)[C@@H](O)[C@H](O)[C@H]2O)[C@H](O)[C@H](O)[C@H]1O	-0.8	/	-17.4	-0.6	5.3	26.4	/	80.4*	i
20	NS(=O)(=O)c1ccc(CCN2C(=O)/C(=C\c3ccc(Cl)cc3)SC2=S)cc1	9.4	0.8%	/	/	/	/	/	-10.9	/
21	C[C@@H]1CCCCO[C@@H](CN(C)C(=O)NC2CCCCC2)[C@H](C)CN([C@H](C)CO)C(=O)c2cc(NS(=O)(=O)c3ccc(Cl)cc3)ccc2O1	/	/	-0.2	8.1	4.2	-0.1	/	/	i
22	CCN(C[C@H]1N[C@H](CO)[C@@H]1c1ccc(-c2ccc(F)cc2)cc1)C(=O)COC	/	/	2.4	-1.0	0.3	1.0	/	/	i
23	C[C@H](CO)N1C[C@H](C)[C@@H](CN(C)C(=O)Nc2ccc3c(c2)OCO3)Oc2ccc(NC(=O)CCCCCC(=O)Nc3ccccc3N)cc2C1=O	/	/	-0.4	11.3	7.5	1.4	/	/	i
24	CCCC(=O)N1CC2(C1)CN(Cc1ccncc1)[C@H](CO)c1[nH]c3cc(OC)ccc3c12	/	/	-0.9	4.4	14.3	0.8	/	/	i
25	COc1ccc(CN(C)C[C@@H]2Oc3ccc(NS(=O)(=O)c4cccs4)cc3C(=O)N([C@H](C)CO)C[C@H]2C)cc1	/	/	-0.3	3.9	-0.5	2.2	/	/	i
26	COc1ccc(OC)c(-c2cnc(OC(C)(C)C)nc2OC(C)(C)C)c1	-23.6	5.4%	1.5	3.9	0.2	-3.9	0.716	-3.5	i
27	O=C(N[C@@H]1CC[C@@H](CCn2cc(C3(O)CCCC3)nn2)O[C@@H]1CO)C1CCOCC1	/	/	8.3	-0.9	-2.4	0.5	/	/	i
28	O=C(NCc1ccc(F)cc1)c1cc(C2CCCCN2S(=O)(=O)Cc2ccccc2)on1 (centres undefined)	1.0	/	-2.1	2.5	5.3	1.8	/	/	i
29	Cc1cc(C)c2c(=O)n3c(nc2c1)C(Cc1ccccc1)NC(=O)c1cccnc1-3 (centres undefined)	-5.1	-2.2%	-2.9	/	/	/	/	/	i
30	CCO[C@@H]1OC(C(=O)NCc2ccccc2)=C[C@H](c2cn(C(C)=O)c3ccccc23)[C@H]1CCCO	-7.7	-12.1%	-0.2	-6.6	-16.2	34.4	/	-5.8	i
31	COC(=O)c1cc2c(c3c4cc(OC)ccc4n(S(=O)(=O)c4ccc(C)cc4)c13)C(=O)N(C)C2	/	/	0.7	5.6	-0.8	0.0	/	/	i
32	Cc1c(Cl)cccc1NC(=O)CSC(N)=O	0.4	/	-3.5	-1.1	0.3	-4.0	0.706	99.1*	i
33	CCCC(=O)NCc1cc(-c2nn(C)c(=O)c3ccccc23)ccc1OC	4.3	-7.7%	0.9	4.4	3.8	-0.4	0.664	4.0	i
34	C[C@@H]1CN([C@H](C)CO)S(=O)(=O)c2ccc(C#Cc3ccncc3)cc2O[C@H]1CN(C)C(=O)C1CCOCC1	/	/	-4.7	-2.2	2.8	-3.9	/	/	i
35	CCNC(=O)C[C@H]1CC[C@H]2[C@H](COc3ccc(NC(=O)Nc4ccccc4F)cc3C(=O)N2C)O1	/	/	-0.8	-0.9	-10.2	4.4	/	/	i
36	Cn1nnnc1SCC(=O)N1CCN(Cc2ccccc2)CC1	-4.2	-2.7%	4.7	12.3	-0.5	-7.1	0.649	-1.9	i
37	O=C(Nc1ccccc1O)c1nc(Cl)ccc1Cl	3.1	-6.1%	2.2	3.3	-2.7	0.2	0.667	65.4	i
38	O=C(c1ccc2c(c1)OCO2)N1C[C@@H]2[C@H](c3ccccc31)[C@H](CO)N2Cc1cccnc1	/	/	-1.4	-5.1	-2.8	-1.3	/	/	i
39	O=C(C[C@@H]1C[C@H]2c3cc(NC(=O)c4cccnc4)ccc3O[C@H]2[C@@H](CO)O1)NC1CCCCC1	/	/	-0.8	1.2	6.0	-0.7	/	/	i
40	O=C(NCCc1c[nH]c2ccccc12)Nc1ccccc1	-0.7	0.0%	/	/	/	/	0.661	74.9	/
41	N#C[C@@H]1[C@@H](c2ccccc2)[C@@H](CO)N1S(=O)(=O)c1ccc(-c2ccccc2)cc1	/	/	-0.1	-2.4	-29.0	5.1	/	/	i
42	O=C1c2cccnc2C(Nc2ccccc2)N1Cc1ccco1 (centres undefined)	5.8	22.9µM*	/	/	/	/	0.689	67.4	/
43	CCSc1sc(CC)cc1C=O	-5.5	-5.8%	-0.5	4.0	4.0	1.3	0.701	0.7	i
44	OCCC1CN(Cc2ccon2)CCN1Cc1ccc(F)c(F)c1 (centres undefined)	-3.6	/	-2.6	7.3	-1.8	0.7	0.704	/	i
45	Cc1cccc(-n2cnc3cc(C(=O)N4CCCCC4)ccc32)c1	0.0	14.8%	/	/	/	/	0.633	-4.5	/
46	COCCNC(=O)C1CCCN(C(=O)c2cc(-c3cccs3)oc2C)CC1 (centres undefined)	0.5	/	0.3	3.3	9.4	-1.7	/	/	i
47	C/C=C/c1ccc2c(c1)O[C@H](CN(C)C(=O)Cc1ccccc1)[C@H](C)CN([C@H](C)CO)S2(=O)=O	/	/	7.4	-5.5	-24.0	3.8	/	/	i
48	Cc1ccccc1NC(=O)C1CCN(S(=O)(=O)c2cccc3nonc23)CC1	-1.5	/	-0.9	2.6	8.3	2.8	0.699	3.7	i
49	C[C@@H]1CN([C@@H](C)CO)C(=O)c2cccc(NS(=O)(=O)c3ccc(Cl)cc3)c2O[C@H]1CN(C)C(=O)Nc1cccc2ccccc12	/	/	2.9	-3.6	-3.0	-4.6	/	/	i
50	COc1ccccc1N(CC(=O)NCCSCc1ccccc1)S(C)(=O)=O	0.4	5.7%	0.3	20.1	13.4	4.4	0.684	-13.1	i
51	CN(C)CC(=O)Nc1ccc2c(c1)[C@@H]1C[C@@H](CC(=O)NCCN3CCCCC3)O[C@@H](CO)[C@@H]1O2	/	/	3.1	1.2	5.5	0.0	/	/	i
52	O=C(CSc1nc(-c2ccccc2)c(-c2ccccc2)o1)NC1CCS(=O)(=O)C1 (centres undefined)	4.4	4.0%	2.6	5.4	4.3	-3.9	0.675	2.7	i
53	Cc1cc(OC(=O)N2CCOCC2)cc(C)c1Cl	-0.3	-4.7%	/	/	/	/	0.71	-0.4	/
54	O=C(COc1ccc(/C=N/NS(=O)(=O)c2ccccc2)cc1)NCc1ccccc1	1.3	22.2%	/	/	/	/	/	1.4	/
55	COc1ccc(N2CCN(C(=O)c3cccc(N4C(=O)C5C6C=CC(C6)C5C4=O)c3)CC2)cc1 (centres undefined)	-0.7	/	1.6	2.9	3.8	8.5	0.668	27.6	i
56	Cc1ccc(OCC(=O)N/N=C/c2cccn2C)cc1	3.1	3.8%	/	/	/	/	/	0.3	/
57	O=C(Nc1cccn2ncnc12)c1cccc(C(F)(F)F)c1	-5.9	8.4%	-1.3	0.1	4.2	0.8	0.674	-2.8	i
58	CC(=O)Nc1ccc(S(=O)(=O)N2CCN(c3cc(C)nc4ncnn34)CC2)cc1	-1.6	0.8%	-0.4	8.0	3.4	1.4	0.708	0.2	i
59	C=CCn1c(N)cc(=O)nc1SC(C)C(=O)Nc1cccc2ccccc12 (centres undefined)	0.7	14.4%	/	/	/	/	0.761	-4.3	/
60	C/C=C/Cn1c(SCc2ccccc2)nc2c1c(=O)[nH]c(=O)n2C	0.9	21.7%	/	/	/	/	0.785	23.8	/

(continued)
cpd	SMILES	HNF4A DNA FP	Vif A3G	AF4-AF9 inh	rRNA inh HTS	rRNA inh HTS OD600	rRNA inh HTS RFP	Ecoli growth	ALR H2O2 inh	FGF22 binding
61	COc1ccc(-c2csc(C(C)(O)c3ccc(F)c(F)c3)n2)cc1 (centres undefined)	-4.0	/	-2.4	-49.2	-79.8	-15.3	/	/	i
62	O=C(CN1C(=O)c2cccc3cccc1c23)NCc1ccccn1	2.2	5.0%	/	/	/	/	0.706	-15.3	/
63	O=C(Nc1cccc(Br)c1)C1CC(=O)N(C2CCCC2)C1 (centres undefined)	-3.5	/	-7.0	3.0	2.4	-2.6	/	/	i
64	CCCc1cc(-c2nc(-c3ccc(C)cc3)cs2)ccn1	1.0	-16.1%	/	/	/	/	0.665	-10.7	/
